Screening data as filed in PubChem BioAssay.
HIV TAR-Tat: HIV-1 TAR-Tat binding disruption; z-score (test concentration not listed); HIV-1 TAR RNA, Tat peptide displacement FRET; hits give high values; 100,000 tested, 0.6% active;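 also: score is relative to mean and SD of negative controls; some compounds called inactive have numbers as strong as hits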
CDC25B CDK2 inh: human CDC25B-CDK2/CyclinA binding inhibition | HTRF CDC25B-CDK2/CyclinA binding, anti-His/anti-Flag; hits give high values | 94,000 tested, 0.72% active | z-score (no concentration beside the values);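 also: score is relative to mean and SD of negative controls; strong numbers were not always called active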
The depositor's hits bear a star; x = no result given.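 The calls were made as follows: active = z-score from 3 up in half or more of its runs; inactive = the rest.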

SMILES	HIV TAR-Tat	CDC25B CDK2 inh
Cc1nc(-c2ccccc2)sc1C(=O)N/N=C/c1cc2ccccc2o1	x	-0.89
CSc1ccc(CNC(=O)CN2C(=O)C3CCCCN3c3ccc(C(=O)N4CCCC4)cc32)cc1 (centres undefined)	0.68	x
O=C(Nc1c(C(c2cccc(Br)c2)N2CCOCC2)oc2ccccc12)c1cccs1 (centres undefined)	-0.2	-1.3
COc1ccc(S(=O)(=O)CCc2nnc(-c3ccncc3)o2)cc1	x	0.45
CC(Oc1ccccc1Cl)C(=O)Oc1ccc(-n2cnnn2)cc1 (centres undefined)	-1.6	-1.1
COc1ccc(-c2noc(-c3nnn(-c4cc(Cl)ccc4C)c3N)n2)cc1	0.96	x
CCOC(=O)C1=C(C)Nc2nc(SCC(C)C)[nH]c(=O)c2C1c1cccnc1 (centres undefined)	-0.14	0.01
Cc1cc(NS(=O)(=O)c2ccc(C(F)(F)F)cc2Cl)no1	x	-0.85
CCOC(=O)c1sc(N2C(=O)c3oc4ccc(C)cc4c(=O)c3C2c2ccc(O)cc2)nc1C (centres undefined)	-0.79	-0.71
O=C(CSc1nccn2nc(-c3cccc4ccccc34)cc12)Nc1nccs1	0.74	x
CCOc1c(NCc2cc(OC)ccc2OC)c(=O)c1=O	1.6	x
O=C(NNC(=O)C1c2ccccc2Oc2ccccc21)c1cccc(F)c1	x	0.26
COc1cc(NC(=O)c2noc3c2CC(C)CC3)c(OC)cc1Cl (centres undefined)	1.6	x
O=C(NCCn1cnc2cc(C(=O)NC3CCCC3)ccc21)NC1CCCCC1	0.48	x
COc1ccc(Cc2nn3c(C)nnc3s2)cc1	1.9	-1.9
CCOC(=O)c1sc2ccccc2c1S(=O)(=O)N1CCCC1	1.2	x
Cc1cc(-c2ccc(C)c(S(=O)(=O)NCC3CCCO3)c2)on1 (centres undefined)	-0.16	x
Nc1cc(S(=O)(=O)OCC(F)(F)C(F)F)ccc1S(=O)(=O)OCC(F)(F)C(F)F	x	2.2
Cc1ccc(-c2n[nH]c3c2C(c2ccccc2)NC3=O)cc1 (centres undefined)	1.2	x
Cc1ccc(-c2ccc(=O)[nH]n2)cc1S(=O)(=O)NCc1ccco1	-0.88	-0.78
O=C(COCc1cc(-c2cccs2)on1)N1CCC(N2CCCCC2)CC1	-0.27	x
O=[N+]([O-])c1ccc(NCc2ccc(-c3cccs3)s2)nc1	x	-2.7
COc1ccc(/C=C2/N=C3SC(C)C(=O)N3C2=O)cc1 (centres undefined)	x	-2.7
Cn1c(=O)c2c(ncn2CC(=O)c2ccc(Cl)cc2)n(C)c1=O	1.7	-0.6
O=S(=O)(c1cccc2cccnc12)N1CCc2ccccc2C1	x	0.26
(next part)
SMILES	HIV TAR-Tat	CDC25B CDK2 inh
O=C(Nc1nnc(SCc2cc(=O)c3cccc(F)c3[nH]2)s1)c1ccccc1	0.67	x
COc1ccccc1N1C(=O)C2CCCCC2C1=O (centres undefined)	-0.22	-2.3
Cc1ccc(N2C(=O)c3cccnc3C2Nc2ccc(C)cc2C)cc1 (centres undefined)	-0.23	-2.1
CCCCc1nnc(NC(=O)CSCc2cc(=O)n3oc(C)cc3n2)s1	0.51	x
Cc1ccccc1CN1CCc2nc(N3CCN(c4ncccn4)CC3)ncc2C1	-0.36	x
CC(=O)C(Sc1nccc(-c2cccnc2)n1)C(C)=O	x	-1.2
Cc1nc2c(c(C)c1CCC(=O)N1CCCCC1)c(=O)n(C)c(=O)n2C	-0.42	-1.6
CC1CN(C)C(C)c2cc[nH]c21 (centres undefined)	x	-1.2
COc1ccc(S(=O)(=O)n2nc(C)c(S(=O)(=O)N3CCOCC3)c2C)cc1C	1	x
c1ccc(Cc2nn3c(-c4ccccc4)nnc3s2)cc1	0.78	-0.71
O=S(=O)(c1cccc2cccnc12)N1CCN(c2nc3ccccc3nc2C(F)(F)F)CC1	1.2	x
COc1ccc(-c2cn3cc(-c4cccc(Cl)c4)nc3n2C)cc1	-3.3	-1.1
CCC(=O)N1CCc2cc(Br)cc(S(=O)(=O)N3CCN(C4CCCCC4)CC3)c21	-0.28	-1.2
CCc1ccc(NC(=O)Nc2nc3ccc(S(C)(=O)=O)cc3s2)cc1	0.51	2
Cc1ccc(Nc2nc(N(C)C)nc3c2cnn3C)cc1	0.61	x
COc1ccc(OC)c(NC(=O)NCCc2csc(C)c2C)c1	-0.61	x
CC(=O)N1CCC2(CC1)OC(=O)C(C)=C2C(=O)NCCCN1CCCCC1C (centres undefined)	0.6	x
Cn1nnc2c(N3CCc4ccccc4C3)ncnc21	2.8	x
CCCc1cc(=O)oc2cc3occ(-c4ccc(F)cc4)c3cc12	x	0.5
COC(=O)c1cc(S(=O)(=O)N(C)Cc2cnn(-c3ccccc3)c2)c[nH]1	0.08	x
Cn1nc(C(=O)N2CCN(c3ccc(Cl)cc3)CC2)c2c1-c1ccccc1S(=O)(=O)C2	2.5	-0.09
CCn1ncc(C2=NOC(C(=O)N3CCC(C(N)=O)CC3)C2)c1C (centres undefined)	0.05	-1.4
Cc1sc2ncnc(N3CCN(C4CCCCC4)CC3)c2c1C	0.09	x
COc1ccc(C2/C(=C(\O)c3ccccc3)C(=O)C(=O)N2CCCN(C)C)c(OC)c1 (centres undefined)	2.1	-1.8
Cc1cc(C)c2c(-n3cccc3)nn(CCCC(=O)NCc3ccc(C)o3)c2n1	0.67	x
Following part.
SMILES	HIV TAR-Tat	CDC25B CDK2 inh
Cc1nn2c(=O)cc(COC(=O)c3ccccc3C)nc2s1	1.2	x
CC1(C)CC(=O)C2=C(C1)NC1=C(C(=O)c3ccccc31)C2c1ccc(O)cc1 (centres undefined)	-2	0.4
CCCCc1nc2sc3c(NCCO)ncnc3c2c2c1COC(C)(C)C2	1.2	-0.76
N#CC1=C(N)OC2=C(C(=O)CCC2)C1c1ccc(F)cc1F (centres undefined)	x	0.95
CCN1CCC2(CC1)OC(=O)C(C)=C2C(=O)N1CCN(c2ccccc2)CC1	0.53	x
Cc1nn(-c2ccc(Cl)cc2)cc1-c1noc(C(=O)NC2CCC(C)CC2)n1 (centres undefined)	2.1	x
COc1ccc(-c2noc(N3CCN(c4cc(C)ccc4C)CC3)n2)cc1OC	-0.74	x
CSc1ncc(Cl)c(C(=O)Nc2ccccc2Cl)n1	1.3	-1.8
CCOC(=O)c1sc(N2C(=O)c3oc4cc(C)c(C)cc4c(=O)c3C2c2ccc(O)cc2)nc1C (centres undefined)	-0.31	-1
Cc1ccnc(NS(=O)(=O)c2cc3c(cc2C)N(C)CCO3)c1	2.3	x
CC(C)c1nnc(N2C(=O)c3oc4ccccc4c(=O)c3C2c2cccnc2)s1 (centres undefined)	1.8	-0.35
CCCNC(=O)NS(=O)(=O)c1ccc(Cl)cc1	0.69	-1
O=C(/C=C/C=C/c1ccccc1)CC1(O)C(=O)Nc2ccc(Br)cc21 (centres undefined)	x	-1.7
CCOC(=O)C1CCCCN1c1c(-c2ccc(C(C)C)cc2)c(=O)c1=O (centres undefined)	2.8	x
CCOC(=O)c1c(C)oc2ccc(OCc3cccc(Br)c3)cc12	-0.17	-1.2
O=C(Cn1cnc(S(=O)(=O)N2CCc3ccccc32)c1)N1CCc2ccccc21	0.66	x
CC(=O)Nc1ccc(NC2(C(F)(F)F)NC(=O)N(c3ccccc3)C2=O)cc1 (centres undefined)	x	-2.2
COCCN1C(=O)c2[nH]nc(-c3ccccc3O)c2C1c1cccc(Cl)c1 (centres undefined)	-0.05	-0.3
CC1(C)CC(=O)CC(C)(C)N1	x	-2
Cn1c(=O)oc2cc(S(=O)(=O)N3CCCC(C(=O)NCCCN4CCOCC4)C3)ccc21 (centres undefined)	1.3	1.1
O=C(Cn1c(=O)oc2cc(S(=O)(=O)NC3CCCC3)ccc21)Nc1ccccc1Cl	1.1	-1.1
COc1ccc(OCc2nc(-c3ccccn3)no2)cc1	0.13	-1.1
O=C(Nc1ccc(Cl)cc1)Nc1ccc(OCC(O)CN2CCCCC2)cc1 (centres undefined)	x	-1.4
CCOc1ccc(C2c3c(oc4ccccc4c3=O)C(=O)N2Cc2ccc3c(c2)OCO3)cc1 (centres undefined)	1.6	0.82
CCc1nnc(NC(=O)C(C)c2c(C)n[nH]c2C)s1 (centres undefined)	0.68	x
Following part
SMILES	HIV TAR-Tat	CDC25B CDK2 inh
O=C(Nc1ccc(F)cc1)n1ncc2cc(Cl)ccc21	1.5	-0.97
C=CCn1c(-c2cccc(Br)c2)n[nH]c1=S	x	1.4
COc1ccc(S(=O)(=O)Nc2cccc(N3CCCS3(=O)=O)c2)cc1	-0.26	x
O=C(Oc1ccc2c(=O)c(-c3ccccc3)coc2c1)c1ccc(F)cc1	x	0.37
Cc1ccc(C(=O)NCC2CCCO2)cc1NC1=NC2CS(=O)(=O)CC2S1 (centres undefined)	-0.86	-0.9
Cc1ccc2c(c1)C(O)(CC(=O)c1ccc(C(C)(C)C)cc1)C(=O)N2 (centres undefined)	-1.1	-0.28
Fc1ccc(Cc2cnc(Nc3ccc(F)cc3)s2)cc1	0.34	-0.77
CC(C)Oc1ccc(C2CC(=O)Nc3c2c(=O)n(C)c(=O)n3C)cc1 (centres undefined)	1.6	-0.15
CCc1nn(CCCC(=O)N2CCN(c3ccccn3)CC2)c(=O)c2cc3occc3n12	0.67	-1.2
O=C(c1cnn2c(C(F)(F)F)cc(-c3cccs3)nc12)N1CCCC1c1ccco1 (centres undefined)	0.69	-1.2
CCC(C)Nc1nc(SCC(=O)OC)nc(N(C)C)n1 (centres undefined)	x	0.51
Cn1c2ccccc2c2cnn(CC(=O)O)c(=O)c21	2.1	-0.84
CCOC(=O)c1sc2ncn(CC(=O)N3CCCC(C)C3)c(=O)c2c1C (centres undefined)	0.33	0.41
CCC(C)NC(=O)Nc1ccc2sc(NS(=O)(=O)c3ccccc3)nc2c1 (centres undefined)	2.4	x
N#CC1=C(N)Oc2cc(O)ccc2C1c1cccnc1 (centres undefined)	0.99	0.01
CC(C)(C)OC(=O)N1CCCN(C(=O)c2cccnc2Oc2ccc(Cl)cc2)CC1	x	0.06
O=S(=O)(NCCc1csc2nc(-c3ccc(F)cc3)nn12)c1ccc(-c2ccccc2)cc1	2	x
O=C1c2cccnc2C(=O)N1Cc1ccc(F)cc1S(=O)(=O)Nc1ccc(F)cc1Cl	-1.5	x
Cc1sc2c(c1C)C(O)=C(C(=O)Nc1ccc(OC(F)(F)F)cc1)S(=O)(=O)N2C	x	-0.72
Cc1ccc2c(n1)sc1c(=O)n(-c3cccc(Br)c3)nnc12	-1	-1.6
COc1ccc(NC(=O)CSc2nc3c(c(=O)[nH]2)CCC3)cc1	1.5	0.8
O=C(CCCN1C(=O)C2C3C=CC(C3)C2C1=O)N1CCN(c2ccccc2)CC1 (centres undefined)	x	-0.97
O=C(Nc1cccc(Cl)c1)N1CCC2(CC1)Nc1cc(F)ccc1-n1cccc12	0.06	x
CCN1C(=O)c2cccc3c(NC(=O)c4cccc([N+](=O)[O-])c4)ccc1c23	x	-1.2
O=C(Oc1cccc(Br)c1)c1cc(-c2cccs2)on1	0.47	-1.7

Entries of single compounds, quoted from the list. Screens in order: HIV TAR-Tat	CDC25B CDK2 inh
`CCc1nn(CCCC(=O)N2CCN(c3ccccn3)CC2)c(=O)c2cc3occc3n12` in the list: 0.67	-1.2
`CCN1C(=O)c2cccc3c(NC(=O)c4cccc([N+](=O)[O-])c4)ccc1c23` in the list: x	-1.2
`CCOC(=O)c1sc2ncn(CC(=O)N3CCCC(C)C3)c(=O)c2c1C` (centres undefined) in the list: 0.33	0.41
`C=CCn1c(-c2cccc(Br)c2)n[nH]c1=S` in the list: x	1.4

Some of the entries above, set out differently.
O=C(Nc1ccc(F)cc1)n1ncc2cc(Cl)ccc21
  HIV TAR-Tat = 1.5
  CDC25B CDK2 inh = -0.97

CCOC(=O)c1sc2ccccc2c1S(=O)(=O)N1CCCC1
  HIV TAR-Tat = 1.2
  CDC25B CDK2 inh = x

Cc1sc2c(c1C)C(O)=C(C(=O)Nc1ccc(OC(F)(F)F)cc1)S(=O)(=O)N2C
  HIV TAR-Tat = x
  CDC25B CDK2 inh = -0.72

CSc1ncc(Cl)c(C(=O)Nc2ccccc2Cl)n1
  HIV TAR-Tat = 1.3
  CDC25B CDK2 inh = -1.8

Returning to the listing; the six compounds before the break are reprinted first.
SMILES	HIV TAR-Tat	CDC25B CDK2 inh
Cc1ccc2c(n1)sc1c(=O)n(-c3cccc(Br)c3)nnc12	-1	-1.6
COc1ccc(NC(=O)CSc2nc3c(c(=O)[nH]2)CCC3)cc1	1.5	0.8
O=C(CCCN1C(=O)C2C3C=CC(C3)C2C1=O)N1CCN(c2ccccc2)CC1 (centres undefined)	x	-0.97
O=C(Nc1cccc(Cl)c1)N1CCC2(CC1)Nc1cc(F)ccc1-n1cccc12	0.06	x
CCN1C(=O)c2cccc3c(NC(=O)c4cccc([N+](=O)[O-])c4)ccc1c23	x	-1.2
O=C(Oc1cccc(Br)c1)c1cc(-c2cccs2)on1	0.47	-1.7
Cc1cc([N+](=O)[O-])nn1CC(=O)NCCCn1ccnc1	0.41	-0.48
O=C1NCCN1CCNS(=O)(=O)c1ccc2c(c1)CCO2	x	-1.1
COc1ccc(OC)c(CNc2nc(NC3CCCC3)nc3c2cnn3C)c1	1.4	x
Cc1nn(CC(=O)NCCN2CCOCC2)c(=O)c2c1sc1ccccc12	2.3	-1.5
CC1(C)Cc2c(C#N)c(SCC(=O)N3CCOCC3)nc(N3CCOCC3)c2CO1	0.97	0.91
COc1cc(OC)c(C2C(C(=O)O)c3cc(OC)c(OC)cc3C(=O)N2C)cc1OC (centres undefined)	x	-2.2
Cc1cc(C)cc(-n2ccn3c(CCC(=O)O)nnc3c2=O)c1	0.14	-0.41
Cc1noc2nc(C(=O)O)nc(N3CCCC3)c12	-0.48	-1.5
CCN1C(=O)N(CC)C2NC(=O)NC21 (centres undefined)	0.03	1.5
Cn1cnnc1SCc1ccc([N+](=O)[O-])cc1	x	-1.6
